UCH37 DUB inh: blocks the human deubiquitinase UCH37 | Q9Y5K5 | purified proteasome/UCH37, Ub-AMC cleavage fluorescence | inhibition, % (test concentration not listed) | actives 0.33% (n = 330,000);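 active means mean of two replicates above 20%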;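 further: 0% = compound-free wells with enzyme and 100% = wells lacking proteasome; stock transfer was 100 nL into about 20 µL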
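Test system – human UCH37 enzyme supplied as purified proteasome complex · Incubation – 30 min preincubation with enzyme, 25 min cleavage at room temperature · Detection – AMC fluorescence from Ub-AMC cleavage, excitation 355 nm, emission 460 nm · Benchmarks – no-proteasome wells (full inhibition) and compound-free wells (no inhibition)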
Beta2AR agonist: activates human beta-2 adrenergic receptor causing internalization; P07550; Am2.2-beta2AR cells, FAP receptor internalization, flow cytometry; reference of the scale not given here; response, % (concentration not given with the values); actives 0.43% (n = 340,000);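 active means response above a set limit, near 3 SD of response in nonfluorescent compounds, cut at about 42% in these data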;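 further: stock transfer was 100 nL into about 11 µL; a reference agonist was the positive control; negative values mostly stem from fluorescent compounds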
Target sequence (P07550 whole entry, looked up): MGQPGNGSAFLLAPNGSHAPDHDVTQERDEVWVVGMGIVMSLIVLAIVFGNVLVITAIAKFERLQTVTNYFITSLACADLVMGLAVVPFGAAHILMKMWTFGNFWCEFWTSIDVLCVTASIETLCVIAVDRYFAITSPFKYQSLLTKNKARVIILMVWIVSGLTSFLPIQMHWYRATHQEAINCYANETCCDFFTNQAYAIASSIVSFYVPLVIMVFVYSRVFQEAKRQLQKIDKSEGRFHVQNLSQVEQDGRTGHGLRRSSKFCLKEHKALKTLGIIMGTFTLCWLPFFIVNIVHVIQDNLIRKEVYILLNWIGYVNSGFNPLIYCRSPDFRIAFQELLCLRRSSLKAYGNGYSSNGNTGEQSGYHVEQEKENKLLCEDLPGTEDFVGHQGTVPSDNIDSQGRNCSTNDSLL
HNF4A DNA FP: change in binding of human HNF4 alpha to DNA; activity change, % at 10 µM; P41235; actives 0.3% (n = 360,000); HNF4a-FITC DNA binding, fluorescence polarization, 1 h; in the data active means activity change above about 30%, passing the limit was not always enough;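 further: controls were the assay level and a saturating level of protein; the project sought stronger binding though the title names inhibitors; some compounds called inactive have numbers as strong as hits; positive values seem to mean higher polarization but the record does not say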
ALR H2O2 inh: inhibitors of human sulfhydryl oxidase ALR. actives 3.8% (n = 290,000). purified ALR, DTT oxidation, H2O2 HRP-luminol luminescence. inhibition, % (no concentration beside the values);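 active means mean and each replicate at 75% or more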;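 further: stock transfer was 7.5 nL into about 7.5 µL; 0% = neutral wells and 100% = wells with inactivated enzyme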
Target sequence (P55789 whole entry, looked up): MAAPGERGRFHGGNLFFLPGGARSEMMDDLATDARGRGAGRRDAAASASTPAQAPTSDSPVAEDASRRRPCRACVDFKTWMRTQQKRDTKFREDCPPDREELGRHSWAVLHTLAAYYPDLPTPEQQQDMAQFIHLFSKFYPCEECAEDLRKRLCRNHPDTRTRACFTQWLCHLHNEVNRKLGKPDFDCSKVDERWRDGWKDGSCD
FGF22 binding: binders of recombinant human FGF22 by thermal shift; Q9HCT0; SYPRO orange fluorescence; percent of sucrose octasulfate shift, DMSO zero; calls only at 9.99 µM; actives 1.5% (n = 340,000); AID 651658;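 active means melting point raised past a set limit in the mean and every replicate; three in four hits are not shown here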
Target sequence (Q9HCT0 whole entry, looked up): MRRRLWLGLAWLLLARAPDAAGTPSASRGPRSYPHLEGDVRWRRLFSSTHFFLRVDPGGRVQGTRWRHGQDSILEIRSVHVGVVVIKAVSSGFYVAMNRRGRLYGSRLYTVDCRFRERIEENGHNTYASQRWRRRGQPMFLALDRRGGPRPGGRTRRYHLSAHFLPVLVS
E coli growth: blocks Escherichia coli growth | OD600, 23 h; stronger effect = lower value | OD600 absorbance (concentration not given with the values) | actives 0.21% (n = 330,000) | AID 1053175;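 active means OD600 absorbance below the run mean of sample wells minus 3.6 SD, in any replicate, cut at about 0.56 in these data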;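 further: stock transfer was 300 nL into about 60 µL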
rRNA inh HTS: selective bacterial rRNA inhibition in E. coli. E. coli WT GFP vs humanized-ribosome RFP mutants, fluorescence, 24 h; stronger effect = lower value; DMSO median 0, no signal -100. GFP signal change (wild-type ribosome), % (no concentration beside the values). actives 1.6% (n = 350,000). AID 720706;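 active means significant combined selectivity score with lowered wild-type GFP, culture density cut under 30%, mutant RFP and density less affected; inactive means any of these conditions unmet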; further: one replicate is shown; some compounds called inactive have numbers as strong as hits
rRNA inh HTS OD600: recorded beside rRNA inh HTS, whose call it bears; OD600 change, %; measured here: OD600 growth;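 optical density of the mix in the first replicate; 0 = DMSO median and -100 = no signal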
rRNA inh HTS RFP: recorded beside rRNA inh HTS, whose call it bears; RFP signal change, %; measured here: RFP humanized mutant strains;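 first replicate; 0 = DMSO median and -100 = no signal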
An asterisk follows results filed as active; i = inactive; . = no result given; & = joins results of further samples.

SMILES	UCH37 DUB inh	Beta2AR agonist	HNF4A DNA FP	ALR H2O2 inh	FGF22 binding	E coli growth	rRNA inh HTS	rRNA inh HTS OD600	rRNA inh HTS RFP
CC1(c2nnc(-c3ccc(F)cc3)o2)CC(c2ccc([N+](=O)[O-])cc2)=NO1 (stereo not drawn)	1.2	-6	-3.7	-1	i	0.59	21	12	-0.2
O=C(O)C1CCC(CNS(=O)(=O)c2ccccc2)CC1 (stereo not drawn)	-0.5	5	4.6	-4	i	0.68	-5	-16	-0.1
CNC(=O)CN(c1cc(C)ccc1OC)S(=O)(=O)c1ccc(C)cc1	-1.0	8	5.1	-10	.	0.69	.	.	.
COc1ccc(CC(=O)NNC(=O)c2cccs2)cc1OC	7.0	3	-4.5	-1	i	0.73	17	10	-3.3
COc1ccc(CCN(Cc2nc3ccccc3c(=O)[nH]2)C(=O)c2ccco2)cc1OC	5.4	8	1.4	0	.	0.68	.	.	.
Clc1ccc(/C=N/N2CCN(Cc3ccccc3)CC2)cc1	.	0	2.4	-1	i	.	1	-2	-3.4
CSc1nnc2c3cc(F)ccc3n(Cc3ccccc3)c2n1	-6.3	-5	1.6	-7	.	0.69	.	.	.
Nn1c(COc2cccc(Br)c2)nnc1SCC(=O)NCC1CCCO1 (stereo not drawn)	1.5	-1	3.7	-20	i	0.63	.	.	.
CCc1cc2ccc(C)cc2nc1SCC(=O)N1CCN(C(=O)c2ccco2)CC1	7.4	3	3.1	2	.	0.76	.	.	.
Cc1ccc(S(=O)(=O)CCC(=O)NNC(=O)CN(C)S(=O)(=O)c2ccc(C)cc2)cc1	0.4	6	0.8	0	i	0.66	11	10	-3.9

At a glance, two of the compounds above.
SMILES	UCH37 DUB inh	Beta2AR agonist	HNF4A DNA FP	ALR H2O2 inh	FGF22 binding	E coli growth	rRNA inh HTS	rRNA inh HTS OD600	rRNA inh HTS RFP
CSc1nnc2c3cc(F)ccc3n(Cc3ccccc3)c2n1	-6.3	-5	1.6	-7	.	0.69	.	.	.
Nn1c(COc2cccc(Br)c2)nnc1SCC(=O)NCC1CCCO1 (stereo not drawn)	1.5	-1	3.7	-20	i	0.63	.	.	.

(next part)
SMILES	UCH37 DUB inh	Beta2AR agonist	HNF4A DNA FP	ALR H2O2 inh	FGF22 binding	E coli growth	rRNA inh HTS	rRNA inh HTS OD600	rRNA inh HTS RFP
CCN(CC)S(=O)(=O)c1cc(C(=O)Nc2cc(Cl)ccc2N2CCN(C)CC2)ccc1Cl	1.3	74*	0.4	-14	.	0.69	.	.	.
Cn1cnnc1SC1CCCCC1NS(=O)(=O)c1ccc(Cl)cc1 (stereo not drawn)	1.3	-4	-0.4	.	i	0.68	7	4	-1.0
CC(C)(C)OC(=O)CNC(=O)c1nc[nH]c1C(=O)NCc1ccccc1	1.9	4	-0.8	.	i	0.68	-6	-5	-0.9
COc1ccc([C@H]2C[C@@H](n3cc(-c4ccc(F)cc4)nn3)[C@H](O)CN2C(=O)c2cccs2)cc1	.	.	-4.9	.	i	.	-20	-20	2.5
COc1ccc(C(=O)OCCN2CCOCC2)cc1OC	2.6	-9	1.3	58	.	0.75	.	.	.
O=C(/C=C/c1ccco1)N(Cc1ccc(F)cc1)C1CCS(=O)(=O)C1 (stereo not drawn)	3.7	4	3.3	-23	i	0.64	-7	-13	2.8
COCCCN1C(=O)C(O)=C(C(=O)c2ccco2)C1c1cccc(Br)c1 (stereo not drawn)	12	6	-5.3	3	.	0.63	.	.	.
Cc1ccc(CN2CC(C(=O)NCCCSc3ccccc3)CC2=O)cc1 (stereo not drawn)	2.0	-5	3.3	-12	i	0.7	-9	-7	-1.6
Cc1nn(-c2ccccc2)c(Cl)c1C1C(C#N)=C(N)Oc2n[nH]c(C)c21 (stereo not drawn)	3.0	13	-0.1	15	.	0.76	.	.	.
NC(=O)CC(NC(=O)c1cccc(Br)c1)c1ccc(N2CCC(N3CCCCC3)CC2)c([N+](=O)[O-])c1 (stereo not drawn)	2.7	-4	2.2	5	i	0.67	22	19	1.8

Single values from the entries so far.
Reading of CSc1nnc2c3cc(F)ccc3n(Cc3ccccc3)c2n1 in E coli growth: 0.69
Reading of COCCCN1C(=O)C(O)=C(C(=O)c2ccco2)C1c1cccc(Br)c1 (stereo not drawn) in Beta2AR agonist: 6

(more compounds)
SMILES	UCH37 DUB inh	Beta2AR agonist	HNF4A DNA FP	ALR H2O2 inh	FGF22 binding	E coli growth	rRNA inh HTS	rRNA inh HTS OD600	rRNA inh HTS RFP
CN(C)/C=N/C(=S)Nc1ccc(Br)cc1F	.	0	-0.9	30	.	.	.	.	.
Cc1cccc(N(Cc2ccccc2)C(=O)Cc2ccc(S(=O)(=O)N3CCOCC3)s2)c1	1.4	-6	2.0	-60	i	0.72	-4	-8	17
CC(C)(C)c1ccccc1OCCOCCSc1ncccn1	3.5	7	-2.8	-2	.	0.66	.	.	.
CCN(CC(=O)N1CCCC1)S(=O)(=O)c1ccc(Br)cc1	2.2	5	3.5	1	i	0.63	9	7	0.3
COc1cccc(OC)c1C(=O)OCC(=O)NC(=O)NCc1ccccc1	5.0	4	3.3	-3	i	0.71	-29	-23	-2.2
Cc1ccc(C2CC(c3cccs3)=NN2C(=O)CSC2=NCCS2)cc1 (stereo not drawn)	-65	-21	0.3	-3	i	0.69	-11	-19	-0.5
COc1cccc(NC(=O)c2ccc(-c3ccc([N+](=O)[O-])cc3)o2)c1	9.8	0	-0.2	-6	i	0.7	-28*	-7.9*	6.6*
S=C(NCc1ccccc1)NC1CCSc2ccccc21 (stereo not drawn)	4.1	-9	-7.6	2	i	0.65	-57	-81	-20
Cc1ccc(C(=O)Nc2c(C)n(C)n(-c3ccccc3)c2=O)cc1S(=O)(=O)N1CCCCC1	3.0	2	3.9	-11	i	0.71	13	6	0.4
COc1ccc2[nH]c3c(NCCCOC(C)C)ncnc3c2c1	-190	16	1.2	43	i	0.6	-6	-3	-4.8
CC1(C(=O)Nc2ccc3c(c2)OCO3)CCN1C(=O)c1ccccc1 (stereo not drawn)	.	.	-3.9	.	i	.	8	16	3.5
COC(=O)CN(n1cnnc1)S(=O)(=O)c1ccccc1Cl	4.6	1	-1.1	-6	.	0.67	.	.	.
CCCOc1ccccc1C(=O)Nc1ccc(S(=O)(=O)N2CCN(C)CC2)cc1	1.6	-8	-0.4	0	i	0.65	-3	-2	3.3
COc1ccc(-c2cn3c(C)c(C(=O)N4CCCc5ccccc54)sc3n2)cc1	2.6	14	3.2	-1	i	0.77	-2	-10	4.7
COc1ccc(NC(=O)CCC(=O)c2cccs2)cc1S(=O)(=O)Nc1ccccc1Cl	0.3	-7	2.9	2	.	0.69	.	.	.
Cc1nc(C(=O)NNC(=O)c2ccc(Cl)cc2)c(C(F)(F)F)o1	1.0	-10	1.5	.	i	0.67	-30*	-21*	-8.6*
Cc1ccccc1N1CCN(C2CCCN(C(=O)c3snnc3C)C2)CC1 (stereo not drawn)	1.8	-1	-0.2	10	i	0.69	3	1	-1.8
CCOC(=O)c1sc(NC(=O)CS(=O)(=O)c2ccc(C)cc2)nc1C	5.4	1	2.4	.	i	0.68	-6	-7	-0.5
CCOc1ccccc1C(=O)NCC(=O)OCC(=O)c1c(N)n(C)c(=O)n(C)c1=O	0.7	4	2.8	.	i	0.72	2	9	1.8
COC(=O)c1cc2ccsc2n1Cc1nc(-c2cccc(Cl)c2)oc1C	6.1	11	-0.1	3	i	0.68	9	1	6.1
CCOC(=O)C1=CC[C@@H](c2ccccc2C(F)(F)F)N(S(=O)(=O)c2ccc(C)cc2)[C@H]1c1ccc(C#N)cc1	.	.	3.6	.	i	.	9	18	1.0
COc1ccc(CNC(=O)CN(C)Cc2ccc(SC)cc2)cc1	-2.1	-6	2.9	.	i	0.68	-2	-19	0.9
O=C(CNc1cccc([N+](=O)[O-])c1)N1CCN(S(=O)(=O)c2ccc(Cl)cc2)CC1	3.8	2	6.2	.	i	0.68	30	9	-1.8
O=C(Nc1cccc(Cl)c1)c1csc([C@@H]2C[C@H](O)[C@@H](CO)O2)n1	.	.	-1.8	.	i	.	-2	7	-4.6
CCc1ccc(NC(=O)C2CCCN(S(=O)(=O)c3ccc4[nH]c(=O)ccc4c3)C2)cc1 (stereo not drawn)	.	4	0.2	-2	i	.	12	14	4.2
CC1CCN(S(=O)(=O)c2ccc(NC(=O)Cn3nnc(-c4ccccc4F)n3)cc2)CC1	2.6	3	0.6	-4	.	0.68	.	.	.
CCCCOCC(O)CN1CCN(C(C)=O)CC1 (stereo not drawn)	1.1	2	-1.0	-9	.	0.69	.	.	.
Cc1ccc(Nc2nnc(SCn3nnc4ccccc4c3=O)s2)cc1	2.7	-17	1.4	.	.	0.71	.	.	.
O=C(CSc1nnc(-c2ccccc2Cl)o1)N1CCCC1	-0.4	-3	1.8	.	i	0.7	2	2	-0.9
O=S(=O)(Nc1nccs1)c1cnc(Cl)c(Br)c1	2.7	2	0.7	-14	i	0.68	-11	-7	1.4
CN(Cc1ccccc1)C(=O)C1(C)CCN1C(=O)Cc1ccc(Cl)cc1Cl (stereo not drawn)	.	.	-2.1	.	i	.	-17	-22	-1.2
COc1ccc(S(=O)(=O)N(C)CC(=O)Nc2ccccc2OC)cc1	-0.1	-4	-3.6	-8	.	0.67	.	.	.
CCCNC(=O)C1(C)CCN(C(=O)c2cccc(OC(F)(F)F)c2)C1 (stereo not drawn)	.	.	2.6	.	i	.	9	17	2.9
C/C(CC(=O)Nc1ccc(N(C)C)cc1)=N\NC(=O)c1ccc([N+](=O)[O-])cc1	.	-4	2.4	95*	i	.	12	15	-1.1
Cc1ccc(OCC(=O)N2CCN(S(C)(=O)=O)CC2)cc1	2.2	0	5.2	-3	i	0.66	18	9	2.8
O=c1cc(O)c2sc3nc(C(F)(F)F)c4c(c3c2[nH]1)CCCCC4	-1.7	-7	2.2	5	i	0.67	-4	-12	-0.7
CN(C)CCn1c(=S)[nH]c2ccccc2c1=O	0.1	5	3.7	.	.	0.7	.	.	.
O=C(O)c1cc(-c2ccco2)nc2ccc(Br)cc12	-110	3&3	-39&-18	98*	.	0.66	.	.	.
CCOC(=O)c1ccc(-n2c(CCC(=O)O)ccc2-c2ccccc2)cc1	-0.1	-1	-1.2	6	i	0.65	-7	-35	-6.1
CCOC(=O)/C=C/S(=O)(=O)c1ccc(NC(C)=O)cc1	5.0	16	1.4	98*	.	0.65	.	.	.
O=S1(=O)CC(N2CCCCC2)CN1Cc1cn(Cc2ccc(Cl)cc2)nn1 (stereo not drawn)	.	.	1.2	.	i	.	4	10	-4.3
O=C(Nc1nnc(SCc2ccccc2F)s1)C1=COCCO1	1.4	-15	-0.6	-5	i	0.73	-9	-7	3.2
Cc1nn(CC(=O)N(C)c2c(N)n(Cc3ccccc3)c(=O)[nH]c2=O)c(C)c1[N+](=O)[O-]	0.8	-5	0.4	-4	i	0.63	1	12	-2.0

A draw from above in order of molecular weight, low to high.
SMILES	UCH37 DUB inh	Beta2AR agonist	HNF4A DNA FP	ALR H2O2 inh	FGF22 binding	E coli growth	rRNA inh HTS	rRNA inh HTS OD600	rRNA inh HTS RFP
CN(C)CCn1c(=S)[nH]c2ccccc2c1=O	0.1	5	3.7	.	.	0.7	.	.	.
O=C(O)c1cc(-c2ccco2)nc2ccc(Br)cc12	-110	3&3	-39&-18	98*	.	0.66	.	.	.
O=C(Nc1nnc(SCc2ccccc2F)s1)C1=COCCO1	1.4	-15	-0.6	-5	i	0.73	-9	-7	3.2
O=c1cc(O)c2sc3nc(C(F)(F)F)c4c(c3c2[nH]1)CCCCC4	-1.7	-7	2.2	5	i	0.67	-4	-12	-0.7
O=S1(=O)CC(N2CCCCC2)CN1Cc1cn(Cc2ccc(Cl)cc2)nn1 (stereo not drawn)	.	.	1.2	.	i	.	4	10	-4.3
Cc1nn(CC(=O)N(C)c2c(N)n(Cc3ccccc3)c(=O)[nH]c2=O)c(C)c1[N+](=O)[O-]	0.8	-5	0.4	-4	i	0.63	1	12	-2.0

Not all compounds are listed; count on the stated rates, not on these rows.
